# GALR2 ag: agonists of human galanin receptor 2 (GALR2). GALR2-expressing cells, agonist activation read-out. activation, %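 (tested at 5 µM)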. hit rate 0.48% among 140,000. AID 803;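 active = above mean plus 3 SD of all compounds, about 5% in these data, not always enough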;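 note: 0% = vehicle buffer wells and 100% = reference agonist at full effect; tested in CHO reporter cells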
# PKD1 kinase inh: blocks activity of human protein kinase D1. Q15139. PKD1 kinase fluorescence polarization assay. inhibition, %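 (about 10 µM by stock and volumes)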. hit rate 0.056% among 200,000. AID 797;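 active = inhibition of 50% or more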;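 note: controls were vehicle for no effect and a reference inhibitor for full effect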
# Target sequence (Q15139 whole entry, looked up): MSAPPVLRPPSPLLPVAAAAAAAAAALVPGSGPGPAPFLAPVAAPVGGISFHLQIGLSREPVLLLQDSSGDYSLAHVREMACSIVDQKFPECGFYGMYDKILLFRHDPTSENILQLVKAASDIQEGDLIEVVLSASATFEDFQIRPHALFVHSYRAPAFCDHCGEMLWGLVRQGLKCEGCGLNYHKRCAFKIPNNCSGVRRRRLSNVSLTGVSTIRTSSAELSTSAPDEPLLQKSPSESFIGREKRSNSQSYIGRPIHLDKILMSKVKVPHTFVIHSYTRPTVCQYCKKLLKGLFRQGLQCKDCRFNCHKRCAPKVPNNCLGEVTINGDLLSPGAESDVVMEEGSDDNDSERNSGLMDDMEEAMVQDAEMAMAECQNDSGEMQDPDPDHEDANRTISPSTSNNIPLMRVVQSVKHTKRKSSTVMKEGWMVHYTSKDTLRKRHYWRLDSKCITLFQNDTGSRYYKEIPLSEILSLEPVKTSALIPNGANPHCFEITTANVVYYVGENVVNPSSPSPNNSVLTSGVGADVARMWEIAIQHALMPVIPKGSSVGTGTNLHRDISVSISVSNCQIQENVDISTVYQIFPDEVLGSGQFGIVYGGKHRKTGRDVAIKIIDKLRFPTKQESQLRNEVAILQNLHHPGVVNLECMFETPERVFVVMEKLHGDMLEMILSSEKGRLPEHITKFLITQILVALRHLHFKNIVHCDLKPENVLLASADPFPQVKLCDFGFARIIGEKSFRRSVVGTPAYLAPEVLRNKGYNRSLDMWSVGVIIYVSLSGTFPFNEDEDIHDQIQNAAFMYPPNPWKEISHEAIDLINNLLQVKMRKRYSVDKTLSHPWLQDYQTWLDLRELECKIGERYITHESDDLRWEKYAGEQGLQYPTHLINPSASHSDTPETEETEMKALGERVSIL
# RGS16-Gao HTS: RGS16-Galphao interaction regulator (human) | O15492+P09471 | bead-based flow cytometry RGS16-Galphao binding, fluorescence; actives lie on both sides | binding response (% of control), % at 10 µM | hit rate 0.38% among 220,000;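 active = below 25% or above 175%, edge rows of some plates excepted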;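 note: Galphao activated by GDP with aluminum fluoride before binding; 100% = wells without compound and 0% = beads without RGS; some results beyond the cut were filed as inactive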
# INS promoter inh: TRM-6 insulin promoter activity inhibition. AID 1273. inhibition, % at 2 µM. TRM-6 cells (human fetal islet line), insulin promoter-eGFP reporter, imaging; reporter expression induced with tamoxifen. hit rate 0.9% among 130,000;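 active = inhibition above the mean plus 3 SD, with well images judged a real hit on visual review, cut at about 60% in these data, passing the limit was not always enough; inconclusive = inhibition over the cutoff but images rejected on review; inactive = inhibition not above the cutoff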
# HSV augment: increases HSV replication in cells; HSV replication augmentation in cells, fold increase; maximum fold increase; hit rate 0.005% among 220,000; AID 1956;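 active = peak rise of 1.5-fold or more in the series; inconclusive = self-fluorescent or not available for retest; tested in PC3 cells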;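 note: first round at 10 µM; read as green reporter fluorescence; hits show the peak of a series up to 25 µM; 1 = signal of infected wells without compound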
# INS promoter inh cell count: also measured in INS promoter inh; calls as there; normalized cell count, %; measured here: cell count, toxicity; reference of the scale not given here;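 cells exposed to compound for 48 h; stained nuclei by imaging scaled within each plate; lower means fewer cells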
# HSV augment primary fold: second read-out of HSV augment, no call of its own (marks repeat the call); fold increase; compound at 10 µM; measured here: primary screen fold increase 10 uM; tested in PC3 cells;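 GFP signal in the first replicate; 1 = infected wells without compound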
# Starred values were filed as active, the others as inactive; i = inactive; ? = inconclusive; . = not tested or not shown.
SMILES,GALR2 ag,PKD1 kinase inh,RGS16-Gao HTS,INS promoter inh,INS promoter inh cell count,HSV augment,HSV augment primary fold
CCOC(=O)N1CCN(c2cc(=O)n(-c3ccc(OCC)cc3)c(=O)[nH]2)CC1,-0.9,-3,102,-10,81,i,1.1
CCOc1cccc(SCc2noc(C(=O)NCC3CCCO3)c2C(=O)O)c1 (stereo unspecified),-1.6,-13,101,27,42,i,0.96
Cc1c(C(=O)N2CCC(C)CC2)oc2ccc(S(=O)(=O)N3CCC4(CC3)OCCO4)cc12,-2.1,3,103,.,.,i,0.96
CC(=C/c1ccccc1)/C=N/NC(=O)c1cccs1,.,.,102,.,.,i,1.1
O=C(O)C1C2C=CC(O2)C1C(=O)NCc1ccc2c(c1)OCO2 (stereo unspecified),-2.1,-8,121,-3,129,i,1
Cc1c(C#N)c2ccccc2n1CCOc1ccccc1F,-0.5,-25,108,-53,121,i,1.1
COc1cc(S(=O)(=O)N2CCOCC2)cc(C(=O)c2nccn2C)c1OC,-0.7,-3,101,-9,116,i,0.78
CCCc1ccc(OCC(=O)NNC(=O)c2cccnc2)cc1,.,-3,103,35,108,i,0.69
CCn1c(-c2c[nH]c3ccccc23)n[nH]c1=S,-4.4,-1,96,9,195,i,1.1
c1ccc(-c2ccc(-c3nccc4ccccc34)[nH]2)cc1,.,.,104,.,.,i,1.1
Cc1ccc(C)c(C2=NNC(=NCc3ccccc3)SC2)c1,.,2,99,.,.,i,1
O=[N+]([O-])c1cc(C(F)(F)F)cc([N+](=O)[O-])c1NCCNC(=S)Nc1ccc(Cl)c(Cl)c1,.,.,104,.,.,i,1
COc1ccc2cc(C)c3nnc(SCC(=O)Nc4nc(-c5ccc(F)cc5)cs4)n3c2c1,-1.0,5,96,29,131,i,0.79
CCn1c2ccccc2c2cc(/C=N/NC(=O)c3cccc(C)c3)ccc21,-2.4,7,102,.,.,i,0.56
Cc1ccccc1N=C1NC(=O)/C(=C/c2cccn2-c2cccc(C(=O)O)c2)S1,.,-2,99,-53,105,i,1.1
COc1ccccc1C1C(C(=O)NCc2ccccc2)=C(C)Nc2ncnn21 (stereo unspecified),-1.0,-9,98,-34,95,i,0.92
CCCC(C)NC(=O)COC(=O)c1ccccc1SCC(=O)NC(C)CCC (stereo unspecified),.,3,98,-67,64,i,1
O=C(N/N=C/c1cccc(OC(=O)c2ccc3c(c2)OCO3)c1)c1cncc(Br)c1,-1.2,3,112,27,129,i,1
Cc1ccc(N2C(=O)CC(SCC(=O)Nc3ccc(S(N)(=O)=O)cc3)C2=O)cc1 (stereo unspecified),.,-1,90,.,.,i,0.98
Cc1cccc(NC(=O)NC2CC(=O)N(c3ccc4c(c3)OCCO4)C2)n1 (stereo unspecified),.,-2,99,-33,132,i,0.97
CCOc1ccc(-n2ccnc2)nn1,.,.,103,.,.,i,0.93
Cc1ccc(SCC(=O)Nc2ccc(-c3nc4ccccc4[nH]3)cc2)cc1,4.3,10,118,-53,87,i,0.88
COC(CNC(=O)CNC(=S)N(Cc1ccccc1)Cc1cccnc1)OC,.,1,102,-63,158,i,1
O=C1NC(=S)S/C1=C\c1ccc(SCc2ccco2)o1,-0.3,-5,90,.,.,i,1.1
CCOC(=O)c1cc(CC)sc1NC(=O)CSc1nc2ccccc2c(=O)n1Cc1ccco1,-0.5,0,105,-50,90,i,0.88
CC(=O)Nc1ccc(C(=O)CSc2nc3ccc(C)cc3[nH]2)cc1,-1.8,-2,110,-8,87,i,0.96
O=[N+]([O-])c1ccc(NC2CCN(Cc3ccccc3)CC2)c([N+](=O)[O-])c1,.,-6,106,.,.,i,0.82
O=C(/C=C/c1ccccc1)NC(NC(=S)Nc1cccc(Cl)c1)C(Cl)(Cl)Cl (stereo unspecified),-0.1,-2,105,23,62,i,0.76
CC(C)CN1C(=S)SC(C)(C)C1n1oc(=O)n(-c2ccccc2)c1=O (stereo unspecified),-0.6,5,42,.,.,i,1.1
CNC(=S)NNC(=O)c1ccc(N(C)C)cc1,.,.,96,.,.,i,1
CCOC(=O)c1cnc2c(C)cc(C)cc2c1Nc1ccc(S(=O)(=O)Nc2ncccn2)cc1,-0.5,-1,106,3,101,i,0.76
O=C(NCCCN1CCCC1=O)c1ccc(OCc2ccccc2)cc1,-3.8,-3,103,.,.,i,0.98
Cc1ccc(C(=O)Nc2nnc(C3CCCCC3)s2)o1,-0.7,1,100,28,118,i,0.98
Cc1cccc2cc(CN(CCN(C)C)C(=S)Nc3ccccc3)c(=O)[nH]c12,0.4,-9,119,19,103,i,0.65
CC(C)C1=Nc2cccc3cccc(c23)N1,-1.5,-17,98,5,210,.,.
CCNc1ccc(Br)cc(C(=O)/C=C/c2ccc3c(c2)OCO3)c1=O,-0.5,-6,76,.,.,i,1
CCOC(=O)c1[nH]c2ccc(OC)cc2c1NC(=S)N1CCN(c2cccc(C)c2C)CC1,-0.5,-3,195,23,66,i,1.2
O=C(CSc1nc2ccccc2n1S(=O)(=O)c1cccc([N+](=O)[O-])c1)NCc1cccs1,-1.7,2,72,.,.,i,1.1
O=C(Nc1ccccc1-c1ccccc1)C1CCC1,.,-1,104,.,.,i,1
O=C(NCCSCc1c(F)cccc1Cl)c1ccc(CN2CCOCC2)cc1,0.7,1,124,-17,119,.,.

# Only GALR2 ag and PKD1 kinase inh, for some of the entries so far:
mol | GALR2 ag | PKD1 kinase inh
CCCc1ccc(OCC(=O)NNC(=O)c2cccnc2)cc1 | . | -3
Cc1c(C(=O)N2CCC(C)CC2)oc2ccc(S(=O)(=O)N3CCC4(CC3)OCCO4)cc12 | -2.1 | 3
O=C1NC(=S)S/C1=C\c1ccc(SCc2ccco2)o1 | -0.3 | -5
O=C(O)C1C2C=CC(O2)C1C(=O)NCc1ccc2c(c1)OCO2 (stereo unspecified) | -2.1 | -8
CCNc1ccc(Br)cc(C(=O)/C=C/c2ccc3c(c2)OCO3)c1=O | -0.5 | -6

# More results
SMILES,GALR2 ag,PKD1 kinase inh,RGS16-Gao HTS,INS promoter inh,INS promoter inh cell count,HSV augment,HSV augment primary fold
O=C(Nc1cc(C(F)(F)F)cc(C(F)(F)F)c1)c1ccc(Cn2cc(C(F)(F)F)ccc2=O)cc1,-3.0,-6,100,4,86,i,0.72
CC(=O)/C(=C/Nc1ccc(Oc2ccccc2)cc1)c1ccccc1,-1.9,-7,106,-20,50,i,1.1
CN(C)C=Nc1c(Br)cc(Br)c2nonc12,-2.1,-8,103,-203,105,?,.
CCC(=O)N1CCc2cc(S(=O)(=O)NCCC(=O)N3CCN(c4ccccn4)CC3)ccc21,-1.1,-2,88,.,.,i,0.89
CC(C)(C)NC(=O)C(c1ccccn1)N(C(=O)c1ccc2c(c1)OCCO2)C1CCCC1 (stereo unspecified),-4.7,-10,102,-68,127,i,0.99
Cc1cc(C(=O)CSc2nn3c(=O)c(C(C)(C)C)nnc3s2)c(C)n1C,.,-4,93,-13,94,i,1
C/C(=N\O)C(C)(C)Nc1ccc(Br)cc1,.,.,102,.,.,i,1
O=C(N[C@@H](Cc1ccc(O)cc1)C(=O)O)c1cccnc1,.,-2,102,.,.,i,0.92
CCn1nc(C)c(/C=N/NC(=O)c2nc3nc(C)cc(C)n3n2)c1C,.,.,101,.,.,i,0.94
COC(=O)/C(=N/Nc1ccccc1C)N1CCCc2ccccc21,-2.3,-1,108,.,.,i,1.2
CC(=O)Nc1ccc(S(=O)(=O)NNC(=O)C(=O)NNc2ccccn2)cc1,.,.,89,.,.,i,0.91
CCCN(CCC)C(=S)Nc1cc(C(=O)OC)ccc1C(=O)OC,-0.8,-15,112,24,156,i,0.97
S=C(NC1CCCCC1)N1CCn2cccc2C1c1ccncc1 (stereo unspecified),.,-4,103,-42,97,i,0.97
COc1ccc(S(=O)(=O)N2CCC(N3CCCCC3)CC2)cc1,-0.9,-3,98,17,136,i,0.93
O=C(C1CC1)N1CCC(c2nc(-c3ccc(S(=O)(=O)NCC4CCCO4)cc3)no2)CC1 (stereo unspecified),-1.2,-8,104,-50,73,i,1.3
O=C(CCN1C(=O)/C(=C\c2cccs2)SC1=S)Nc1ccccn1,.,-3,102,.,.,?,.
CSCCC(=O)Nc1ccc(C(C)=O)cc1,-0.9,-11,102,.,.,i,0.89
[N-]=C=C1C(=O)NC(=O)C([n+]2ccc(-c3ccncc3)cc2)C1c1ccccc1C(F)(F)F (stereo unspecified),.,.,102,.,.,i,1.1
CC(=O)Nc1ccc(N2C(=O)CSC2c2ccccc2[N+](=O)[O-])cc1 (stereo unspecified),.,1,100,.,.,i,0.96
Cc1ccc(S(=O)(=O)/N=C2/C=C(Sc3ncn[nH]3)C(=O)c3ccccc32)c(C)c1,-1.1,16,35,-185,33,i,1.1

# 3 entries already listed, arranged by length of the SMILES, lowest first:
SMILES,GALR2 ag,PKD1 kinase inh,RGS16-Gao HTS,INS promoter inh,INS promoter inh cell count,HSV augment,HSV augment primary fold
O=C(NCCCN1CCCC1=O)c1ccc(OCc2ccccc2)cc1,-3.8,-3,103,.,.,i,0.98
COc1cc(S(=O)(=O)N2CCOCC2)cc(C(=O)c2nccn2C)c1OC,-0.7,-3,101,-9,116,i,0.78
CC(=O)Nc1ccc(S(=O)(=O)NNC(=O)C(=O)NNc2ccccn2)cc1,.,.,89,.,.,i,0.91

# Going on with the list:
SMILES,GALR2 ag,PKD1 kinase inh,RGS16-Gao HTS,INS promoter inh,INS promoter inh cell count,HSV augment,HSV augment primary fold
COc1cccc(C(=O)NN/C(C)=C/C(=O)C(F)(F)C(F)(F)C(F)(F)F)c1,-1.7,6,101,0,106,i,0.92
COC(=O)c1cccc(C23CC4(C2)[C@H](CN(Cc2ccc(-c5ccccc5)cc2)[C@@H]4c2ccccc2)C3c2ccc(C(F)(F)F)cc2)c1 (stereo partly specified),.,.,94,.,.,i,0.95
CC1CCN(CC(=O)NCc2ccccc2)CC1,0.5,-8,100,39,87,i,0.98
COC(=O)c1ccccc1NC(=S)NC(NC(=O)COc1ccccc1)C(Cl)(Cl)Cl (stereo unspecified),-0.9,10,100,3,94,.,.
COCc1cc(CN2CCCC2)c(O)c2ncccc12,-1.9,-11,101,.,.,i,1.1
N#CCN1CCC/C1=C\[N+](=O)[O-],-0.9,4,107,-4,99,i,1
NC(=S)NN=C(Cc1ccccc1)Cc1ccccc1,.,-2,99,35,52,?,.
CCCCCNC(=O)c1ccc2c(=O)[nH]c3c(C(=O)NCC4CCCO4)sc(=S)n3c2c1 (stereo unspecified),-2.6,-6,106,14,96,i,1
Cc1cc(C)n(C(=O)c2cccc(S(=O)(=O)N3CCOCC3)c2)n1,-0.8,-2,113,65,60,i,0.79
O=C(CSc1ccc2ccccc2n1)c1ccc2c(c1)OCO2,-0.4,-6,101,-59,103,i,0.83
O=C(COC(=O)/C=C/c1cccs1)Nc1nc(-c2ccccc2)cs1,-0.7,-1,108,0,113,i,0.99
Nc1nnc(C(c2ccccc2)c2ccccc2)s1,-1.4,9,104,0,47,i,0.91
CC(C)Nc1nnc(SCC(=O)Nc2ccc3c(c2)C(=O)c2ccccc2C3=O)s1,0.9,11,107,-4,36,i,0.88
CC(/C=N/Nc1nc2ccccc2[nH]1)=C\c1ccccc1,-0.8,4,102,.,.,i,0.89
COc1ccccc1C(=O)C1CCCN(C(=O)C2CCCC2)C1 (stereo unspecified),.,-6,96,.,.,i,0.96
O=C(CNC(=O)c1cccc(F)c1)N/N=C/c1cccc([N+](=O)[O-])c1,0.0,-13,100,12,99,i,0.85
Oc1cccc2ccc(/C=C/c3c(F)cccc3Cl)nc12,.,-3,99,.,.,i,0.84
CC(C)C(=O)Nc1cccc(C(=O)N2CCCCC2C)c1 (stereo unspecified),-3.8,3,101,48,46,i,0.99
NC(=O)C(Cc1ccccc1)NS(=O)(=O)c1ccc(N2CCCC2=O)cc1 (stereo unspecified),-2.1,-3,98,12,87,i,0.84
O=C(CCCN1C(=O)c2cccc3cccc(c23)C1=O)N1CCN(c2ncccn2)CC1,.,-3,101,.,.,i,0.94
Nn1c(SCC(=O)N2CCCc3ccccc32)nnc1-c1ccc(Cl)cc1,-1.2,5,94,.,.,i,0.98
C=CCNS(=O)(=O)c1cccc(C(C)=O)c1,0.3,-6,106,-43,137,i,0.88
C=CCn1c(SCC(=O)N2CCN(c3ccc(F)cc3)CC2)nnc1-c1cccs1,-0.8,-22,102,.,.,i,0.9
CN(C)c1ccc(CNC(=O)C2CCC(CNc3c(N4CCCCC4)c(=O)c3=O)CC2)cc1 (stereo unspecified),.,.,107,.,.,i,0.91
COc1ccc(C2CC(=O)C3=C(C2)Nc2ncnn2C3c2ccccc2C)cc1 (stereo unspecified),-3.3,-11,99,-23,110,i,0.89
CCCCCc1cc(=O)oc2c(C(CCN3CCN(c4ccccc4)CC3)c3ccc(N(C)C)cc3)c(OC)cc(OC)c12 (stereo unspecified),.,.,101,.,.,i,0.79
C=CCC(NCc1ccco1)c1ccc(OC)cc1OC (stereo unspecified),-2.5,1,105,-11,76,i,0.97

# Source: PubChem BioAssay (several laboratories)
